Assay outcomes: PubChem, National Center for Advancing Translational Sciences (NCATS)
TRPML1 ag = qHTS for Agonists of the Human Mucolipin Transient Receptor Potential 1 (TRPML1). Mucolipin-1 (Homo sapiens), Q9GZU1. TRPML1-expressing cells, Ca2+ dye fluorescence, FDSS; host cell line not named in the record; reference of the full effect not given here. activation, % (no concentration beside the values). 0.12% of 410,000 active. AID 624414, 2012; in the data active = activation above about 50%; inconclusive = about 30% to 50%; inactive = below about 30%; further: 0% is about no effect; the text of the record puts the active cut at 80%
Target sequence (Q9GZU1 whole entry, looked up): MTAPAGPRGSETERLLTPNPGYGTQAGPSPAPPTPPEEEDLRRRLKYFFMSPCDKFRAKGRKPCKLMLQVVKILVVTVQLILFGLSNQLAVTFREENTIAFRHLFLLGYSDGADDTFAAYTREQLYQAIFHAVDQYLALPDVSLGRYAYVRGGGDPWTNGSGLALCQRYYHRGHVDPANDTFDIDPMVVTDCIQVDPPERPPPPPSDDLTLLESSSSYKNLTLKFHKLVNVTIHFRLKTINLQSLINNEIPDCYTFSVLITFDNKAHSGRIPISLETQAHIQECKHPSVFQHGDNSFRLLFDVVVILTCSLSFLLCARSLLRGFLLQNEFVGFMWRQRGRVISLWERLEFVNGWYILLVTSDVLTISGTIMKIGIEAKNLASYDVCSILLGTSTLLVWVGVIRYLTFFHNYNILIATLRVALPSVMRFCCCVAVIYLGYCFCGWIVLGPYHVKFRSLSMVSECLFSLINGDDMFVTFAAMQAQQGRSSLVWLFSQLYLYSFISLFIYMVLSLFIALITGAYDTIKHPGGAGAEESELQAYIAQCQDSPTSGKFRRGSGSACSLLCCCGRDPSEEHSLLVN
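Tet-induced TRPML1-DL cells, 1,500 per well, cultured overnight, were loaded with a no-wash Ca2+ dye for 45–90 min. Calcium fluorescence was recorded on the FDSS for 110 s after compound addition, before the EC80 agonist (4 uM 54-4) was added.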
TRPML1 blocker = qHTS for Inhibitors of the Human Mucolipin Transient Receptor Potential 1 (TRPML1); Mucolipin-1 (Homo sapiens), Q9GZU1; TRPML1-inducible cells, Ca2+ dye fluorescence, FDSS; active compounds read low; inhibition of EC80 agonist-evoked calcium signal; activity change, negative = inhibition, % (test concentration not listed); 0.02% of 390,000 active; AID 624415, 2012; in the data active means activity change below about -50%; inconclusive means about -30% to -50%; inactive means above about -30%;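 further: stimulus is agonist 54-4 at its EC80 concentration; on the % scale 0 is the no-effect control and ±100 the full control effect; compound concentration not given in the record; the text of the record puts the active cut at -80%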
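Tet-induced TRPML1-DL cells loaded with Ca8 no-wash calcium dye were read kinetically on FDSS. Compound addition was followed by EC80 agonist 54-4 (4 uM final); inhibition was read over 110 s.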
Six1-Eya2 inh = qHTS Assay for Inhibitors of the Six1/Eya2 Interaction; AID 651725, 2012; AlphaScreen GST-Six1/His-Eya2 binding, biochemical; active compounds read low; control for the full effect not named in the record; activity change, % (concentration not given with the values); 0.56% of 360,000 active; in the data active = activity change below about -65%; inconclusive = about -30% to -65%; inactive = above about -30%; further: on the % scale 0 is the no-effect control and ±100 the full control effect
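AlphaScreen with GST-Six1 and His-Eya2 (5X mix: 250 nM and 500 nM), glutathione donor and nickel acceptor beads; buffer 50 mM Tris pH 8.0, 300 mM NaCl, 1 mM TCEP; 1 h at 37 C in the dark.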
D2 agonist = Beta-Arrestin HTS for Positive Allosteric Modulators of the Human D2 Dopamine Receptor: Agonists; D(2) dopamine receptor (Homo sapiens), P14416; DiscoveRx PathHunter D2 beta-arrestin, luminescence, 90 min; 100% = 57 uM dopamine signal; activation, % (concentration not given with the values); 0.084% of 360,000 active; in the data active = activation above about 40%; inconclusive = about 15% to 40%; inactive = below about 15%; further: compound concentration not given in the record; the text of the record calls up to 30% inactive
Target sequence (P14416 whole entry, looked up): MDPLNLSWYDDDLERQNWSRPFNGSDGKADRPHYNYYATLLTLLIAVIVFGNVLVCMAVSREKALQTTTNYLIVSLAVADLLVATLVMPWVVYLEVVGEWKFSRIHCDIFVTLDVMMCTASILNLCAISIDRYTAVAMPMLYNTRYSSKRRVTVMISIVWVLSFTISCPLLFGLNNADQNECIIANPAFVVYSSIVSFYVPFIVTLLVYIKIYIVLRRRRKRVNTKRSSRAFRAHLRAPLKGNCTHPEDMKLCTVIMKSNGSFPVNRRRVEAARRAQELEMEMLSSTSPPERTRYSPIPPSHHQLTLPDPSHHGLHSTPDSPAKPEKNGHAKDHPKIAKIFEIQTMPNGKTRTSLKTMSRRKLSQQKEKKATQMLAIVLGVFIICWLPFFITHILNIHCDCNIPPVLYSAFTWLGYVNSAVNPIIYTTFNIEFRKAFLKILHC
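Agonist mode: compounds alone added to overnight-plated D2 PathHunter cells for 90 min at 37 C, with 57 uM final dopamine (EC100) defining full response. Beta-arrestin recruitment detected by chemiluminescent reagent, read after 1 h at ambient temperature.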
PINK1 modulator = A Quantitative High throughput Screen to Identify Chemical Modulators of PINK1 Expression; Potency, µM (doses to about 76.6 µM), for the others: top-dose activation (PINK1 increase), most hits filed as activators; PINK1 immunofluorescence, high-content cytometry, 24 h; 0.2% of 410,000 active; active = well fitted activation curve with a large enough effect; inconclusive = small, poorly fitted or top-dose-only effect; inactive = flat fitted curve, though single readings scatter; cell line not stated here;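 further: potency means the concentration at half of the fitted maximal effect; % of control where 0% means no effect; nearly all actives have a fitted effect of over 65% in size; a mitochondrial uncoupler was the plate control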
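Cells are seeded, rested 12 hours, then given compound at five concentrations or DMSO for 24 hours. After fixation, blocking and antibody staining, PINK1 amount and mitochondrial localization are scored; CCCP serves as control.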
D2 PAM = Beta-Arrestin HTS for Positive Allosteric Modulators of the Human D2 Dopamine Receptor: Potentiators | D(2) dopamine receptor (Homo sapiens), P14416 | DiscoveRx D2 beta-arrestin cells, luminescence, 90 min; 100% = 57 uM dopamine signal | potentiation, % (test concentration not listed) | 0.23% of 360,000 active | AID 624464, 2012; active = potentiation of 50% or more; inconclusive = 30% to 50%; inactive = 30% or less;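 further: compound concentration not given in the record; tested on top of an EC20 dose of dopamine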
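D2 cells co-treated with compound plus 50 nM dopamine (EC20) for 90 min at 37 deg C to detect potentiation. Beta-arrestin recruitment was read as enzyme-fragment luminescence after 1 h at ambient temperature. Full response was set by 57 uM dopamine.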
Numbers without * were called inactive; ? = inconclusive; nt = no result given; [ ] = dose if it differs, or a comment.

Screens in order – TRPML1 ag, TRPML1 blocker, Six1-Eya2 inh, D2 agonist, PINK1 modulator, D2 PAM
[1] CN(C)c1nc(N(C)C)n(C(=O)c2cccs2)n1
→ 0.2, -14.8, 0.0, -1.4, -0.2%, -8.6
[2] O=C1c2ccccc2CCC1C(O)c1ccccn1 (stereo not given)
→ 2.7, 39.9, 7.5, 0.0, -2.7%, -2.8
[3] CC(=O)Nc1cccc(C(=O)OC(C)C(=O)N2CCc3ccccc32)c1 (stereo not given)
→ 1.1, -4.9, -6.2, -2.7, -0.5%, -13.7
[4] Cc1nc(N2CCN(C(=O)c3ccco3)CC2)c2c3c(sc2n1)CCCC3
→ 0.3, 27.2, -22.1, 0.1, 3.8%[38.3 µM], -6.6
[5] Cc1cc(NC(=O)C2CC(=O)N(c3ccccc3C)C2)no1 (stereo not given)
→ 0.3, 0.6, 0.0, -3.8, -0.9%, -11.8
[6] O=C(NC1CCCC1)C1CCCN1C(=O)Nc1ccccc1 (stereo not given)
→ -0.3, 7.4, -5.7, -3.8, -0.6%, -4.4
[7] CCOc1ccc(CCN2C(=O)C(=O)N([C@@H](CC(C)C)CN3CCC[C@H]3CN3C(=O)C(=O)NC[C@@H]3Cc3ccc(O)cc3)C[C@@H]2Cc2ccccc2)cc1
→ -1.0, nt, -9.7, nt, -0.3%, nt
[8] Cc1cc(C)n(-c2cc(N3CCN(C(=O)c4ccccc4C)CC3)ccc2[N+](=O)[O-])n1
→ 3.0, 14.5, -2.2, -2.7, -1.6%, -3.0
[9] COc1ccc(C2CC(=O)c3c([nH]c(C(=O)OC4CCCC4)c3C)C2)cc1OC (stereo not given)
→ 2.1, -1.4, nt, nt, 1.2%, nt
[10] CC[C@]12C(=O)N(C)C[C@H]([C@@H]3C(=O)N(C)C(=O)[C@@H]31)N2C(=O)c1ccc(Br)cc1
→ -0.6, 6.8, 8.2, -1.5, -0.1%, -8.0
[11] CCOC(=O)C1CCCC(NS(=O)(=O)c2ccc(NC(C)=O)cc2)C1 (stereo not given)
→ -0.8, 1.8, 5.1, -2.5, 6.6%[38.3 µM], -0.8
[12] Clc1ccc(C(c2cccs2)N2CCNCC2)cc1 (stereo not given)
→ -0.8, 2.9, -5.2, -1.6, 2.0%, -28.2
[13] Cn1c(CCNC(=O)c2ccccc2F)nnc1SCc1nc2ccccc2c(=O)[nH]1
→ 0.2, -1.0, -0.6, -1.9, 4.7%[38.3 µM], -18.8
[14] Cc1cc2ncn(C3CC(=O)N(C)C3=O)c2cc1C (stereo not given)
→ -0.7, -6.9, 5.2, 2.1, -1.8%, 7.3
[15] O=C(Cn1c(NCCO)nc2ccccc21)c1ccc(Cl)cc1Cl
→ -1.4, 0.7, 6.1, -1.2, -1.3%, -1.2

Continued.
Screens in order – TRPML1 ag, TRPML1 blocker, Six1-Eya2 inh, D2 agonist, PINK1 modulator, D2 PAM
[16] COc1cc(Br)c(C2CC(=O)Nc3cc4c(cc32)OCCO4)cc1OC (stereo not given)
→ 0.7, -13.9, nt, nt, 4.7%, nt
[17] CCn1cc(CN2CCC(C(=O)Nc3cccc(-c4cscn4)c3)CC2)cn1
→ 0.2, 5.7, -3.5, -7.8, -0.2%, -41.1
[18] N#CCN1C(=O)NC2(CCCc3sccc32)C1=O (stereo not given)
→ 0.4, 2.4, 5.4, 3.3, -1.4%, -3.2
[19] COC(=O)c1cc(-c2ccc(OC)cc2)on1
→ 1.6, 7.9, -12.0, -0.1, -0.6%, -3.7
[20] CC(C)(C)c1ccc(-c2noc(C(=O)NN)n2)cc1
→ 0.7, 4.4, 10.9, -2.6, 0.5%, -7.7
[21] COc1cccc(N2C(=O)CC(N3CCC(c4nc5ccccc5[nH]4)CC3)C2=O)c1 (stereo not given)
→ 1.3, 14.5, -7.8, -0.3, 1.5%, -0.5
[22] Cn1c(=O)c2c(nc(CN3CCC(C(N)=O)CC3)n2Cc2c(Cl)cccc2Cl)n(C)c1=O
→ -0.1, 4.2, -21.8, 0.1, 0.7%, -1.7
[23] CC(=O)N1CCN(C(=O)COC(=O)COc2ccc(C#N)cc2)CC1
→ -0.6, -8.2, -6.8, -1.7, 0.8%, -0.5
[24] Cc1ccc(CN2C(=O)c3ccccc3S(=O)(=O)c3ccc(C(=O)OCC4CCCO4)cc32)cc1 (stereo not given)
→ 1.6, 28.8, nt, nt, 2.7%, nt
[25] COc1ccc(/C=N/n2c(-c3n[nH]c4c3CCC4)n[nH]c2=S)cc1
→ -0.4, -2.3, 1.0, -1.8, 5.0%, -19.0
[26] O=C(O)CC1SC(=O)N(Cc2ccccc2)C1=O (stereo not given)
→ 1.1, -5.5, 5.7, -0.3, 1.0%, 3.2
[27] Cc1noc(C)c1CSCC(=O)OCC(=O)Nc1sccc1C#N
→ 0.0, -8.8, 0.6, -2.8, -0.8%, -8.8
[28] Cc1cc(C2=NNC(=NC3CC3)SC2)c(C)n1-c1c(C)n(C)n(-c2ccccc2)c1=O
→ 2.3, -10.0, -0.8, -3.0, 0.8%, -10.6
[29] CCC(CC)c1nnc(NC(=O)CS(=O)(=O)c2ccccc2)s1
→ 0.5, -12.1, -4.3, 4.3, -0.7%, -0.8
[30] CCOC(=O)N=S(=O)(Oc1ccc([N+](=O)[O-])cc1)c1ccc(Cl)cc1 (stereo not given)
→ 1.4, 12.3, -18.8, 2.6, 0.4%, -9.2

Further results follow:
Screens in order – TRPML1 ag, TRPML1 blocker, Six1-Eya2 inh, D2 agonist, PINK1 modulator, D2 PAM
[31] Cc1cc(C)c(NC(=O)Cn2c(=O)n(CC3CCCO3)c(=O)c3ccccc32)c(C)c1 (stereo not given)
→ -0.9, 19.4, nt, nt, 0.9%, nt
[32] C[C@@H]1COC(=O)[C@H](CC(=O)OC(C)(C)C)C/C=C\C[C@H](CC(=O)N(CCO)Cc2ccccc2)C(=O)N1
→ -0.3, 2.4, -4.0, -0.6, -1.1%, -14.7
[33] Cc1ccc(N2CCN(C(=O)CCc3c(C)nc4ncnn4c3C)CC2)c(C)c1
→ -0.6, -5.2, nt, nt, 1.6%, nt
[34] CCc1cccc(OCCCN2C(=O)NC(C)(C)C2=O)c1
→ 0.8, 4.0, 1.0, -3.9, nt, -9.4
[35] Nc1c(N(Cc2ccco2)C(=O)COc2ccccc2)c(=O)[nH]c(=O)n1Cc1ccccc1
→ 0.0, -12.4, 7.4, 0.8, -1.7%, -2.7
[36] CS(=O)(=O)Nc1ccc(C2=NN(S(C)(=O)=O)C(c3ccc4nccnc4c3)C2)cc1 (stereo not given)
→ -0.3, 4.3, -7.0, -4.2, 15.2%, -11.5
[37] CSCCC(NC(=O)c1occc1C)C(=O)O (stereo not given)
→ -0.7, -18.1, 13.9, -3.3, -0.1%, 6.4
[38] COC(=O)c1cccc(C23CC4(C2)[C@H](CN(Cc2ccc(C(F)(F)F)cc2)[C@@H]4c2ccccc2)C3c2ccc(C(F)(F)F)cc2)c1 (stereo not given in full)
→ 0.6, 56.8, 0.2, -3.3, 3.9%, -4.9
[39] O=[N+]([O-])c1ccc2c(c1)nnn2-c1ccccc1
→ -0.1, -11.3, -2.7, 7.5, 0.8%, 0.0
[40] Cc1ccc(S(=O)(=O)N2CCN(C(=O)c3ccnn3C)CC2)cc1C
→ 0.3, 16.0, -1.1, -3.2, 0.7%, -7.9
[41] CN1CCN(NC(=O)c2cccc(Br)c2)CC1
→ -0.1, 15.9, 6.0, -2.0, -0.8%, -32.5
[42] CC1CCCC(C)N1C(=O)COc1ccccc1F (stereo not given)
→ 1.2, 17.1, -0.6, 0.4, 0.8%, -3.9
[43] O=C(NCc1nnnn1-c1ccc(Cl)cc1)c1ccc2c(c1)OCO2
→ -0.7, 1.2, -2.1, -2.2, -0.4%, -21.5
[44] COc1ccc(N=C2C(=Nc3ccc(OC)cc3)N(c3ccc(OC)cc3)C(=S)N2c2ccccc2)cc1
→ -0.6, 5.2, -24.7, -1.0, nt, -3.7
[45] COc1ccc(CC2(CO)CCN(Cc3ccncc3)CC2)cc1
→ -0.7, -1.6, 7.7, -4.8, 2.9%, 3.5

(list continues)
Screens in order – TRPML1 ag, TRPML1 blocker, Six1-Eya2 inh, D2 agonist, PINK1 modulator, D2 PAM
[46] COc1ccc(NC(=O)c2ccc(=O)oc2)cc1
→ 0.1, -14.0, 2.5, -0.2, nt, 3.1
[47] Cc1cc(C)n(CCNC(=O)C2CCC(=O)N(Cc3ccc(Cl)cc3)C2)n1 (stereo not given)
→ 0.1, 6.5, 2.9, 0.5, 0.5%, -3.4
[48] COc1ccc(CCNC(=O)C2CCN(S(=O)(=O)c3cccc4nonc34)CC2)cc1OC
→ 0.1, -8.3, 3.7, 1.1, 0.3%, -1.1
[49] CCOc1ccc(NC(=S)N(CCOC)C2CCN(C(C)C)CC2)cc1
→ 0.9, 26.8, 0.5, -4.2, 0.4%, -3.9
[50] NC1=NC(=Nc2cccc(S(N)(=O)=O)c2)c2ccccc21
→ 2.9, -9.5, -3.4, -1.0, -0.6%, 1.5
[51] COC(=O)\C(C(C)=O)=C(/C=C/C=C/N(C)C)N(C)C
→ 0.1, -14.3, -9.8, -4.3, 2.2%, -4.1
[52] CN(C(=O)CSc1ccncc1)C1CCCN(Cc2ccccc2F)C1 (stereo not given)
→ 0.0, -9.6, 7.6, -6.7, -0.2%, -10.0
[53] Cn1nc(CSc2ccccc2)c(C=O)c1Cl
→ -0.9, 6.6, 0.8, -2.8, 1.1%, -6.7
[54] c1cc2c3c(cccc3c1)NC1(CCC3(CC1)Nc1cccc4cccc(c14)N3)N2
→ 1.6, -10.8, ?, 0.1, -0.6%, 70.6*
[55] CCN(CC)CCNC(=O)Cn1c(C)cc2ccccc2c1=O
→ -0.3, 15.6, 3.7, -2.5, -0.1%, -8.6
[56] Cc1ccc(Cn2c(C)c(C(=O)NCc3ccc4c(c3)OCO4)sc2=O)cc1
→ -0.1, nt, -10.7, 7.8, 0.4%, -4.4
[57] Cc1cnc(NC(=O)C2(C)CCN2C(=O)C(C)C)s1 (stereo not given)
→ -0.5, nt, 4.7, 4.7, 0.9%, 5.6
[58] N#C/C(=N\Nc1c(Cl)cccc1Cl)C(=O)NN
→ 0.7, -0.6, 9.1, -13.3, 2.1%, -30.2
[59] Brc1ccccc1/C=N/Nc1ccccn1
→ 0.0, 3.5, 2.1, -4.3, -0.2%, -3.6
[60] CC(C)OCCCNC(=O)CN1C(=O)c2ccccc2Sc2ncccc21
→ 1.1, -14.4, nt, nt, -0.1%, nt
[61] COc1ccc(C(=O)CSc2nnc(NC(=O)C3CC(=O)N(c4ccccc4)C3)s2)cc1 (stereo not given)
→ 0.1, -12.6, -0.5, 3.4, 11.3%, -17.9

Compounds were not picked by outcome; overall some 1% were active at least once.
